KCNQ2 enhance: potentiators of rat KCNQ2 potassium channel; O88943; CHO-K1 KCNQ2, FluxOR thallium flux fluorescence; hits give high values; B-score at 10 µM; 310,000 compounds, 0.54% hits;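 active = fluorescence ratio B-score at least 3 SD of library B-scores, with initial fluorescence B-score within 3 SD, cut at about 5.3 in these data; same plate scores as AID 2156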;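 also: B-score of peak minus minimum over baseline fluorescence ratio after K+ and Tl+ stimulus; positive B-score means potentiation of KCNQ2 with more thallium influx and brighter signal; only the inactives scoring about 0 or higher are listed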
Target sequence (O88943 whole entry, looked up): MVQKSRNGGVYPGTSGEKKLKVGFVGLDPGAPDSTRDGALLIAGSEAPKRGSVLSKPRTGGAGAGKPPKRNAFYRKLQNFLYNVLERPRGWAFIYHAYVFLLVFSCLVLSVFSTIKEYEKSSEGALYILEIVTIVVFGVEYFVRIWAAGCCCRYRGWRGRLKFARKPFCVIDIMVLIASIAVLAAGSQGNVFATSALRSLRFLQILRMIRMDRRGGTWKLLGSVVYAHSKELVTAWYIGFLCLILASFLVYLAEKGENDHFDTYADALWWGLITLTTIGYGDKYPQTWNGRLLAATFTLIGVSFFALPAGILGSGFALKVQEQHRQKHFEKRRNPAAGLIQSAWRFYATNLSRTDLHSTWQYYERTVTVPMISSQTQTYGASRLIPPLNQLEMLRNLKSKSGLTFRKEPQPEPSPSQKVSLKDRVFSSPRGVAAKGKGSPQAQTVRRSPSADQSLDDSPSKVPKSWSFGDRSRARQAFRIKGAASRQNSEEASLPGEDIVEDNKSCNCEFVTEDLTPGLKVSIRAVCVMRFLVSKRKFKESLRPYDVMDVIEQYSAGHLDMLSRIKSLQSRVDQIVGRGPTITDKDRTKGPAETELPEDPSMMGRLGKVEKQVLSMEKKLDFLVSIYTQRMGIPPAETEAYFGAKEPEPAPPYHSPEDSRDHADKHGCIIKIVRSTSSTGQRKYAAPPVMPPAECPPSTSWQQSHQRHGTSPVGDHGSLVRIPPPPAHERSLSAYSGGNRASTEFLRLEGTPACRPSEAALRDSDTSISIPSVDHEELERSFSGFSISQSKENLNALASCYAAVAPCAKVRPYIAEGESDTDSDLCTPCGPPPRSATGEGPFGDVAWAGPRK
KCNQ2 enhance baseline: recorded beside KCNQ2 enhance, whose call it bears; B-score; compound at 10 µM; measured here: initial fluorescence intensity artifact check;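 brightness before thallium and not channel activity; 0 = typical well and far values either way flag optical interference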
* = called active by the depositor.

SMILES	KCNQ2 enhance	KCNQ2 enhance baseline
Nc1c([N+](=O)[O-])c(=O)oc2ccccc12	0.5	-1
CCCCc1ccc(NC(=O)CC(C)(C)C)cc1	14*	1.6*
COc1ccc(N2CCN(C(=O)CN(Cc3ccc(Cl)cc3)S(C)(=O)=O)CC2)cc1	0.55	-1.2
CC1=CC(c2ccccc2)n2nc(N3C(=O)c4ccccc4C3=O)nc2N1 (centres undefined)	1.5	-0.58
Cc1ccc2nc(SCC(=O)Nc3ccc4sc(C)nc4c3)c(C#N)cc2c1	1.5	-0.03
CCn1c2ccccc2c2cc(NC(=O)c3cc(OC)cc(OC)c3)ccc21	0.3	1.4
CCc1c(C)nc2ncnn2c1NCc1cccs1	0.42	0.49
COc1ccc(C2SCC(=O)N2CCc2ccc(OC)c(OC)c2)cc1 (centres undefined)	1.5	-0.49
C/C(=N\NC(=O)c1c(C)nc2ccccn12)c1cccc([N+](=O)[O-])c1	3.3	-0.31
Cn1c(=O)c2c(nc(Br)n2Cc2nnc(N)s2)n(C)c1=O	0.81	0.28
Cc1cc2c(Nc3ccc(C(=O)O)cc3)ncnc2s1	0.02	-0.54
N#Cc1ccc(-c2ccc(OCC(=O)NCCCN3CCCC3=O)cc2)cc1	0.7	2
CSc1nc2c(C)c(C)c(C)c(C)c2[nH]1	0.42	0.48
Cc1cc(C)n(-c2ccc(C(=O)Nc3cccnc3Cl)cc2)n1	0.87	2.4
CCC1CCCCN1C(=O)CCNS(=O)(=O)c1ccc2c(c1)oc(=O)n2C (centres undefined)	0.69	-0.03
O=C1N/C(=N\N=C\c2cccs2)SC1Cc1ccc(Cl)c(Cl)c1 (centres undefined)	0.46	0.61
CC1(c2ccccc2)NC(=O)N(CC(=O)N2CCN(S(=O)(=O)c3cccs3)CC2)C1=O (centres undefined)	0.17	-0.4
O=C(O)c1ccccc1/C=N/n1c(C2CCCCC2)n[nH]c1=S	0.75	0.92
CCCc1cc(=O)[nH]c(SCC(=O)NC(=O)OCC)n1	0.29	0.89
O=C(Cn1cnc2ccccc2c1=O)c1ccc2c(c1)OCCO2	2.5	-1.7
Cc1ccc(Cl)cc1NC(=O)CSc1sc2c(O)cc(=O)[nH]c2c1C#N	1.5	0.33
CCOC(=O)c1c(C)c(-c2ccccc2)n(CC(=O)N2CCCC2)c1C	0.89	2.8
O=C(C1CCCN(Cc2ccc(Br)cc2)C1)N1CCCCC1 (centres undefined)	2.1	-0.03
Cc1csc(-c2cnn(-c3ccccc3)c2NC(=O)c2cccc(C(F)(F)F)c2)n1	0.28	-0.96
Cc1sc(NC(=S)NC(=O)c2ccco2)c(C#N)c1C	0.17	1.7

An excerpt from above in order of SMILES length, rising.
SMILES	KCNQ2 enhance	KCNQ2 enhance baseline
CCc1c(C)nc2ncnn2c1NCc1cccs1	0.42	0.49
CCCCc1ccc(NC(=O)CC(C)(C)C)cc1	14*	1.6*
Cn1c(=O)c2c(nc(Br)n2Cc2nnc(N)s2)n(C)c1=O	0.81	0.28
COc1ccc(N2CCN(C(=O)CN(Cc3ccc(Cl)cc3)S(C)(=O)=O)CC2)cc1	0.55	-1.2
CC1(c2ccccc2)NC(=O)N(CC(=O)N2CCN(S(=O)(=O)c3cccs3)CC2)C1=O (centres undefined)	0.17	-0.4

Next section:
SMILES	KCNQ2 enhance	KCNQ2 enhance baseline
O=C(Nc1ccncc1)c1ccc2c(c1)S(=O)(=O)c1ccccc1C2=O	0.62	-0.29
Cc1sc2ncnc(Sc3ccccc3C(=O)O)c2c1C	1.2	0.99
COc1ccc(Nc2nc(N)c([N+](=O)[O-])c(N3CCOCC3)n2)cc1	0.69	-0.12
COc1ccc(OC)c(NC(=O)NNC(=O)COc2ccc(F)cc2F)c1	0.68	1.5
COC(=O)c1sccc1NC(=O)Nc1ccc(C)c(C)c1	0.1	0.1
CCN(CC)C(=O)Cn1nc(-c2ccc(Cl)cc2)c2ccccc2c1=O	1.7	1.7
CCOc1ccc(CCNc2nc3c(c(=O)n(C)c(=O)n3C)n2CC)cc1OCC	0.04	0.5
CS(=O)(=O)N(CC(=O)NCc1ccncc1)c1ccc(F)c(Cl)c1	0.74	-2.7
O=C(COC(=O)c1nc(Cl)ccc1Cl)Nc1ccc2[nH]c(=O)[nH]c2c1	0.31	-0.18
C=CCOc1ccc(/C(O)=C2\C(=O)C(=O)N(CCN(C)C)C2c2cccs2)cc1 (centres undefined)	1.5	0.08
N#CC1=C2SCN(Cc3ccccc3)CN2C(=O)CC1c1ccccc1F (centres undefined)	0.03	0.06
Cc1cc(C)cc(N(CC(=O)Nc2ccccc2C(=O)N2CCOCC2)S(C)(=O)=O)c1	0.65	-0.85
CCCn1c(=O)c2c(c3ccccc31)OC(C)C(=O)N2 (centres undefined)	1.8	0.94
O=S(=O)(c1ccc(NC(=S)NCc2ccco2)cc1)N1CCCCC1	1.5	2.2
N#C/C(=C\c1ccc(N2CCCC2)c([N+](=O)[O-])c1)c1nc2ccccc2[nH]1	0.76	0.27
Cc1cc(-c2nc3ccccc3c(=O)o2)ccc1[N+](=O)[O-]	0.14	-0.12
O=C(O)Cn1cccc1C(=O)c1ccccc1	0.81	0.35
COc1ccc(C(CNC(=O)CNS(=O)(=O)c2ccc(NC(C)=O)cc2)N2CCOCC2)cc1 (centres undefined)	0.91	1.1
CC(=O)c1ccc(OC(=O)/C=C/c2ccccc2)cc1	0.89	0.01
COc1ccccc1NC(=O)c1ccc(NC(=O)c2ccco2)cc1	0.76	0.02
COc1ccc(OCCC(=O)OCC(=O)NCCc2ccccc2)cc1	2	0.89
O=C(NCCN1CCCCC1)Nc1ccccc1F	0.21	0.03
O=C(COc1ccc2ccccc2c1)N[C@@H](C(=O)O)c1ccc(O)cc1	0.56	1.7
Cc1nc(NC(=O)CSc2nc3ccccc3s2)sc1C(=O)N(C)C	0.65	-0.41
C=CCNCCOCCSc1ccc(Cl)cc1	1.6	-2

Three records picked at random from the list so far:
SMILES	KCNQ2 enhance	KCNQ2 enhance baseline
COc1ccccc1NC(=O)c1ccc(NC(=O)c2ccco2)cc1	0.76	0.02
Cc1cc(-c2nc3ccccc3c(=O)o2)ccc1[N+](=O)[O-]	0.14	-0.12
O=C(COC(=O)c1nc(Cl)ccc1Cl)Nc1ccc2[nH]c(=O)[nH]c2c1	0.31	-0.18

Additional compounds
SMILES	KCNQ2 enhance	KCNQ2 enhance baseline
Cc1ccc(CNS(=O)(=O)c2ccc3c(c2)n(C)c(=O)c(=O)n3C)cc1	0.13	-0.66
O=C(CSc1nccn1Cc1ccccc1)NCc1ccccc1	1.3	-0.05
CCc1c(C)nc(N)nc1OCC(F)(F)C(F)F	3.2	-1
C=CCOc1ccc(CNn2cn[nH]c2=S)cc1OC	0.69	-0.34
Cc1cc(=O)oc2cc(Oc3ccc([N+](=O)[O-])cc3C(F)(F)F)ccc12	0.81	1
COc1ccc2c(c1)c(=O)oc1cc(OCC(=O)N3CCc4ccccc4C3)ccc12	0.09	0.59
COC(=O)c1ccc2c(=O)n(CCN3CCOCC3)c(SCC(=O)NCc3ccccc3)nc2c1	1.2	0.05
CCOC(=O)C1(Cc2ccc(Cl)cc2)CCN(C(=O)c2cscn2)CC1	0.66	0.08
COc1ccc(/C=N/Nc2nonc2N)cc1OC	0.52	-0.76
CN(CCc1ccccn1)C(=O)Nc1ccc(Cl)cc1	1.5	-0.84
Cc1cccc(NC(=O)Nc2ccc(C)c(C)c2)n1	0.29	-1
Cc1ccc(-c2csc3nc[nH]c(=O)c23)cc1	0.96	0.04
CC(=O)Nc1ccc(NC(=O)CCc2nc3sc4c(c3c(=O)[nH]2)CCCC4)cc1	0.85	0.01
COc1ccc(Oc2ncnc3c2ncn3Cc2ccccc2)cc1	0.09	0.99
CC(=O)c1cccc(NC(=O)C(OC(=O)/C=C/c2ccc3c(c2)OCO3)c2ccccc2)c1 (centres undefined)	0.67	-2.1
COC(c1ccccc1)c1nnc(CCC(=O)NC2CCCCC2)o1 (centres undefined)	0.49	-0.11
CCOc1cc(S(=O)(=O)n2nc(C)cc2C)ccc1F	0.35	-0.3
O=C(N=C1SC2CS(=O)(=O)CC2N1c1ccc(F)cc1)C1CCCCC1 (centres undefined)	1.5	-1.4
CCC(C)(C(=O)NC1CCCC1)N(Cc1cccs1)C(C)=O (centres undefined)	0.46	1.4
Cc1ccc(N2CS(=O)(=O)/C(=C/N(C)C)C2=O)cc1	0.59	0.08
COc1cc(/C=C2\SC(c3ccc(C)cc3)=NC2=O)cc(OC)c1OC	0.85	0.57
Cc1ccc(-c2cc(C(=O)NCCCN3CCOCC3)c3ccccc3n2)cc1	0.19	-0.07
N#CC1=C(N)OC(c2ccccc2)=C(C#N)C1c1ccc2c(c1)OCO2 (centres undefined)	1.1	1.2
COc1ccccc1N=Cc1c(O)c2ccccc2oc1=O	0.05	0.04
Cc1cc(OCC(=O)NNC(=O)c2ccncc2)cc(C)c1Cl	0.51	0.8
Carrying on.
SMILES	KCNQ2 enhance	KCNQ2 enhance baseline
CCOCCCNC(=O)C(NC(=O)c1ccc(NC(C)=O)cc1)c1ccc(Cl)cc1 (centres undefined)	1.1	-0.5
Cc1c(C=O)c2ccccc2n1CCOc1ccccc1F	0.86	-2.3
CC(=O)N1CCC(C(=O)NCCOc2cccc(C)c2)CC1	1.2	-0.02
Nc1cc(F)ccc1N1CCCCCC1	0.02	-0.59
COC(=O)C(CCCN1C(=O)c2ccccc2C1=O)(NC(C)=O)c1nn[nH]n1 (centres undefined)	0.13	0.07
O=C(CN1C(=O)CNC1=O)Nc1ccc(Cl)cc1	1.1	0.15
CCC1(c2ccc(F)cc2)NC(=O)N(CC(=O)c2cc(C)n(C3CC3)c2C)C1=O (centres undefined)	0.74	0
COc1ccc(NC(=O)c2c3c(nc4ccccc24)CCC3)cc1S(=O)(=O)N1CCOCC1	0.17	-2.4
CC1Cc2cc(/C(O)=C3/C(=O)C(=O)N(CCCn4ccnc4)C3c3ccc(F)cc3)ccc2O1 (centres undefined)	0.01	1.2
FC(F)(F)c1cnc(NNC(=S)Nc2ccccc2Cl)c(Cl)c1	0.76	0.68
Cc1cc(C(=O)NNC(=O)c2ccc(C(F)(F)F)cc2)no1	1.8	0.69
Cc1cccc(NC(=S)NC(=O)c2ccco2)n1	0.32	0.68
N#C/C(C(N)=O)=C1/SC(Cc2ccc(F)cc2)C(=O)N1c1ccccc1 (centres undefined)	0.87	-0.01
CCCOP(=O)(OCCC)C(Nc1ccc(C(=O)O)cc1)c1ccccc1 (centres undefined)	0.14	-1
CCC(=O)Nc1ccc(-c2csc(NNC(C)=O)n2)cc1	0.22	-0.75
COc1ccc(S(=O)(=O)Nc2ccc(C)cn2)cc1	0.6	-0.17
CSCCC(NC(=O)c1ccccc1)C(=O)NCc1ccc(S(N)(=O)=O)cc1 (centres undefined)	1.8	1.1
Cc1cc(Cl)ccc1C(=O)C1CCCN(C(=O)c2n[nH]c3c2CCCC3)C1 (centres undefined)	0.68	-0.19
COc1ccc(C(=O)Nc2ccc(S(=O)(=O)N3CCCCC3)cc2)cc1	0.54	-0.11
Cn1c(Cc2cccs2)nnc1SC/C=C/c1ccccc1	0.36	-1.2
O=C(CC1SC(N2CCCC2)=NC1=O)Nc1ccc(C(=O)N2CCCC(C(F)(F)F)C2)cc1 (centres undefined)	1.1	1.3
O=C1C2CCCN2C(=O)N1CCCCN1CCN(c2cccc(C(F)(F)F)c2)CC1 (centres undefined)	0.75	0.03
CCc1ccc(NC(=O)CSc2nnc(CNC(=O)c3ccc(OC)cc3)o2)cc1	0.16	1.5
COc1ccc(C)cc1Nc1n[n+](C)c(-c2ccc(O)cc2O)s1	0.04	-0.82
O=C(c1ccc(F)cc1)C1CCN(C(=O)NC2CCCCC2)CC1	0.01	-0.37
The listing continues.
SMILES	KCNQ2 enhance	KCNQ2 enhance baseline
COc1ccc(N=CC2=C(O)CC(C)(C)CC2=O)cc1	1	-0.79
Cc1c(OCC(=O)NCCCn2ccnc2)ccc2c3c(c(=O)oc12)CCC3	2.2	0.65
COc1ccc2cc(CN(Cc3ccco3)C(=S)NCC3CCCO3)c(=O)[nH]c2c1 (centres undefined)	1.2	-0.34
O=C(Nc1ccccc1C(=O)O)/C(=C/c1ccc([N+](=O)[O-])cc1)NC(=O)c1ccc(Br)o1	1.2	-0.85
COc1ccc(C(=O)OCC(=O)N(C)C2CCS(=O)(=O)C2)cc1S(=O)(=O)N(C)Cc1ccccc1 (centres undefined)	0.2	-1
CN(C)/C=C(\C#N)C(=O)Nc1ccc(F)c(Cl)c1	0.22	-1.5
O=C(CCCC1=NS(=O)(=O)c2ccccc2N1)NCCc1ccc(Cl)cc1	0.95	0.07
COc1ccc(Cl)cc1NS(=O)(=O)c1cccc(C(=O)NCC(c2ccco2)N2CCCC2)c1 (centres undefined)	0.54	-0.26
CCOc1ccc(S(=O)(=O)Nc2ccc(C(=O)N3CCCC3)cc2)cc1C(N)=O	0.25	-1.1
COc1ccc(-c2n[nH]c(=S)n2-c2ccc3c(c2)OCCO3)cc1	0.3	0.96
CN1CCN(S(=O)(=O)c2ccc3[nH]cc(C(=O)O)c(=O)c3c2)CC1	1.1	-2
O=C(CSC1CCCCC1)Nc1ccccc1Br	6.9*	-0.67*
COc1ccc(CNCc2ccncc2)c(OC)c1	1.5	0.05
CCOC(=O)N1CCN(S(=O)(=O)c2ccc(F)cc2)CC1	0.55	-1.4
CCCCN(C)C(=O)C1CCC(=O)N(c2cc(OC)c(OC)c(OC)c2)C1c1ccc(OC)cc1 (centres undefined)	0.07	-0.03
COc1ccc(S(=O)(=O)NN(C)C(=O)c2nn(-c3ccccc3)ccc2=O)cc1	0.58	0.14

Some of these compounds in order of the KCNQ2 enhance baseline value, ascending.
SMILES	KCNQ2 enhance	KCNQ2 enhance baseline
CN(C)/C=C(\C#N)C(=O)Nc1ccc(F)c(Cl)c1	0.22	-1.5
COc1ccc(N=CC2=C(O)CC(C)(C)CC2=O)cc1	1	-0.79
COc1ccc(Cl)cc1NS(=O)(=O)c1cccc(C(=O)NCC(c2ccco2)N2CCCC2)c1 (centres undefined)	0.54	-0.26

The list is partial; count on the stated rates, not on these rows.
